# Screens: PubChem BioAssay, several laboratories
# LANA-H2B inh = blocks KSHV LANA binding to histone H2A/H2B; 320,000 compounds, 0.6% hits; inhibition, % (no concentration beside the values); Q9QR71; cell-free LANA-H2A/H2B peptide, fluorescence polarization; AID 2629; in the data active = inhibition mostly above about 10%, no sharp cut-off; inactive = mostly below about 6.7%;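 also: stock transfer was 7.5 nL into about 10 µL; 0% = median of vehicle wells and 100% = median of positive control wells; one replicate is shown; the record names a cut of 25% in any replicate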
# Beta apoptosis = blocks beta cell apoptosis. INS-1E cytokine-induced death, ATP luminescence, 48 h; percent of positive-control rescue, neutral wells zero. protection from apoptosis, % (test concentration not listed). 300,000 compounds, 0.8% hits;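 active = all replicates at 75% or more, or half of them and the mean; inconclusive = half reach 75% but not the mean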;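 also: 0% = cytokine-treated negative control wells and 100% = positive control rescue; higher means more ATP so stronger rescue from cytokine killing; wells of about 40 µL received 100 nL stock; the first replicate is given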
# Ecoli rRNA inh = inhibits bacterial ribosomal RNA function over humanized ribosomes; AID 720706; E. coli WT GFP vs humanized-ribosome RFP mutants, fluorescence, 24 h; active compounds read low; DMSO median 0, no signal -100; GFP signal change (wild-type ribosome), % (no concentration beside the values); 350,000 compounds, 1.6% hits;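 active = significant combined selectivity score with lowered wild-type GFP, culture density cut under 30%, mutant RFP and density less affected; inactive = any of these conditions unmet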; also: one replicate is shown; some compounds called inactive have numbers as strong as hits
# T cruzi repl = blocks replication of Trypanosoma cruzi; T. cruzi beta-gal in NIH3T3, luminescence, 90 h; inhibition, % (test concentration not listed); AID 1885; 300,000 compounds, 1.4% hits;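 active = mean inhibition across valid replicates above about 55%, limit read from the data; inconclusive = mean below that limit but half or more replicates reach it; inactive = mean below it, under half of replicates reach it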;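 also: signal also drops with host cell toxicity which is not excluded here; 0% = plate median of DMSO wells and 100% = zero luminescence signal; higher percent means less beta-gal luminescence so fewer parasites; stock transfer was 50 nL into about 50 µL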
# ALR H2O2 inh = blocks human ALR sulfhydryl oxidase activity; inhibition, % (concentration not given with the values); 290,000 compounds, 3.8% hits; P55789; purified ALR, DTT oxidation, H2O2 HRP-luminol luminescence;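 active = mean and each replicate at 75% or more; inconclusive = only one of the two met; inactive = neither met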;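 also: stock transfer was 7.5 nL into about 7.5 µL; 0% = neutral wells and 100% = wells with inactivated enzyme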
# Target sequence (P55789 whole entry, looked up): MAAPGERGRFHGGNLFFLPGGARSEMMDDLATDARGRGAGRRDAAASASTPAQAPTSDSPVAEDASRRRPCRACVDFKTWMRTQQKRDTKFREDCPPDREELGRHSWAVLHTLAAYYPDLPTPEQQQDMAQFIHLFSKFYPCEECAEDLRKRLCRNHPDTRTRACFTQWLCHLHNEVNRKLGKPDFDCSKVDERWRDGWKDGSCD
# A1 inh = inhibitors of the anti-apoptotic protein A1, read as caspase activation; caspase activation, % (test concentration not listed); MEF A1-2A-BIM cells, Caspase-Glo 3/7 luminescence, 3 h; percent of clofoctol response, vehicle zero; 330,000 compounds, 0.066% hits;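 active = over half of replicate activation scores above 10%, or exactly half above 10 with the replicate mean above 10; inconclusive = replicate mean below 10 yet half the replicates above 10; inactive = over half of replicates below 10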;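 also: wells of about 30 µL received 50 nL stock; many hits fall short of the cut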
# B2AR ag = activates human beta-2 adrenergic receptor causing internalization; P07550; Am2.2-beta2AR cells, FAP receptor internalization, flow cytometry; reference of the scale not given here; response, % (no concentration beside the values); 340,000 compounds, 0.43% hits; AID 504454;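 active = response above a set limit, near 3 SD of response in nonfluorescent compounds, cut at about 42% in these data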;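 also: stock transfer was 100 nL into about 11 µL; a reference agonist was the positive control; negative values mostly stem from fluorescent compounds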
# Target sequence (P07550 whole entry, looked up): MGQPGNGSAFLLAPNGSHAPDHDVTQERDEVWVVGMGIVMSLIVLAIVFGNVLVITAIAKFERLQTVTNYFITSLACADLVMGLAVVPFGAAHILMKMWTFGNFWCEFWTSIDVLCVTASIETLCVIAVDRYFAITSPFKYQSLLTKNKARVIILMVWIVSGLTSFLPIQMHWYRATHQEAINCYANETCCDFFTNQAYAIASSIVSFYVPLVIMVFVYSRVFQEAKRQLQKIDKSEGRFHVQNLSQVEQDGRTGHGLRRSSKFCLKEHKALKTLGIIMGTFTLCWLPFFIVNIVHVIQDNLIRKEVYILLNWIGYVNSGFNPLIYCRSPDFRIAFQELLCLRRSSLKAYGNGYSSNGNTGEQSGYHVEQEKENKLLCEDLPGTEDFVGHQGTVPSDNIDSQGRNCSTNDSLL
# Calb FLC = C. albicans growth modulation with fluconazole; C. albicans CaCi-2 (fluconazole-resistant clinical isolate) + fluconazole, Alamar Blue growth, 48 h; growth inhibition, % (test concentration not listed); 300,000 compounds, 0.57% hits;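 active = most replicates above 75%; inconclusive = exactly half above 75%; inactive = most below 75%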;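 also: all wells also contain fluconazole at 8 µg/ml as a sub-toxic cotreatment; 0% = median of DMSO wells and 100% = median of geldanamycin control wells; wells of about 8 µL received 7.5 nL stock; the first replicate is given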
# Ecoli rRNA inh OD600 = also measured in Ecoli rRNA inh; calls as there; OD600 change, %; measured here: OD600 growth;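 optical density of the mix in the first replicate; 0 = DMSO median and -100 = no signal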
# Ecoli rRNA inh RFP = recorded beside Ecoli rRNA inh, whose call it bears; RFP signal change, %; measured here: RFP humanized mutant strains;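 first replicate; 0 = DMSO median and -100 = no signal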
# Numbers without * were called inactive; ? = inconclusive; / = not tested or not shown.
SMILES,LANA-H2B inh,Beta apoptosis,Ecoli rRNA inh,Ecoli rRNA inh OD600,Ecoli rRNA inh RFP,T cruzi repl,ALR H2O2 inh,A1 inh,B2AR ag,Calb FLC
C/C(Cn1cnc([N+](=O)[O-])n1)=N/NC(=O)COc1c(Cl)cc(Cl)cc1Cl,6.3,1,10,1,-4.8,62*,-12,0.2,-5,1
Cc1ccc(CN2CCC(n3nccc3NC(=O)CCCc3ccccc3)CC2)o1,-1.0,0,2,2,2.3,8,7,0.6,4,-6
CC(C)CN(C(=O)COC(=O)c1cccn1C)c1c(N)n(Cc2ccccc2)c(=O)[nH]c1=O,-0.3,-4,5,6,0.2,-5,0,0.8,-7,2
CCCC(C(=O)O)N1C(=O)/C(=C/c2cccn2C)SC1=S (centres undefined),-26,1,/,/,/,/,40,-0.4,5,/
Cc1cc(SCC(=O)Nc2cccc(S(N)(=O)=O)c2)c(C)cc1Br,-1.6,-5,-52,-79,-14,2,10,0.1,1,10
CCOc1ccccc1N1CCN(Cc2cccc(OC)c2OC)CC1,3.0,6,/,/,/,-4,47,-0.3,9,-11
COc1ccc(OC)c(NC(=O)C(=S)NC2CCCCC2)c1,-268,11,-4,-2,-2.8,29,23,-0.3,-1,0
CCOC(=O)C1(C(F)(F)F)N=C(C(F)(F)F)Nc2ccccc21 (centres undefined),1.5,1,2,8,-0.1,4,-3,-0.9,4,6
O=C(NCCCN1CCN(CCCNC(=O)c2cc([N+](=O)[O-])ccc2Cl)CC1)c1cc([N+](=O)[O-])ccc1Cl,-7.4,4,/,/,/,-1,-11,0.8,1,6
COc1ccc(-n2c(C)cc(/C=N/Nc3nnc(C)n3N)c2C)cc1,-0.4,15,/,/,/,3,-1,0.8,-5,3
COc1ccc(NC(=O)c2c[nH]n3c(=O)cc(C4CCN(C(=O)OC(C)(C)C)CC4)nc23)cc1Cl,-1.4,-5,19,17,8.5,7,13,-0.6,6,8
CC1(C)Cc2c(sc(NC(=O)c3ccc(S(=O)(=O)N4CCCCCC4)cc3)c2C(N)=O)C(C)(C)N1,1.4,/,-11,-2,5.4,28,-3,-1.1,36,-11
NC(=S)N/N=C/c1cn(CCC(=O)O)nc1-c1cccc(Br)c1,0.6,1,6,4,-1.0,-3,/,0.3,1,4
Cc1nc(SCC(=O)N2CCCC2=O)nc(C)c1C,-2.9,-2,6,10,-1.8,/,28,1.0,2,/
CCOc1ccc(N(CC(=O)NCCSCc2ccco2)S(=O)(=O)c2ccc(F)cc2)cc1,0.6,-1,-4,-21,-0.4,11,-3,0.7,-10,-3
CCCCCCOc1cccc(N)c1,2.4,-5,/,/,/,9,-3,-0.4,10,-7
CCN(CC)C(=N)/C(C#N)=N/Nc1ccc(C)cc1,-3.0,-7,-2,-18,-2.1,6,99*,-0.4,10,-5
Nc1ncnc(Nc2c(F)cccc2F)n1,-2.7,-4,1,2,-0.9,-18,-4,0.2,-7,-23
CC(=O)Oc1ccccc1C(=O)Nc1ccccc1C(=O)N1CCCC1,-0.6,-3,-1,-3,-2.5,1,8,-0.4,1,3
C#CCOCCOCCOCCNc1nc(N2CCN(C(=O)[C@H](CCCCN)n3cc([C@@H](N)C(C)CC)nn3)CC2)nc(N2CCN(C(=O)[C@H](CCCCN)n3cc([C@@H](N)CC(C)C)nn3)CC2)n1 (some centres undefined),-10,-1,7,4,40,-9,60,1.1,-4,7
CCOC(=O)N1CCN(Cc2cc(Cl)c3cccnc3c2O)CC1,14,103*,-51,-79,-15,44,-9,-0.5,/,116*
COc1cc(CNc2nc3c(C)cc(C)cc3s2)ccc1O,0.1,6,-37,-64,1.6,2,24,0.2,11,4
O=c1cc(CCl)nc2scc(-c3ccccc3)n12,-0.7,-2,-23,-34,-16,-6,61,1.7,13,1
Cc1ccc(F)c(NC(=O)CCc2ccccc2)c1,2.9,-7,/,/,/,1,2,-7.0,8,/
CC(C(=O)Nc1ccccc1-c1ccccc1)N(C)Cc1nc2ccccc2c(=O)[nH]1 (centres undefined),-3.6,/,-24,-20,4.0,0,-4,0.2,-2,15
CCN(CC(=O)Nc1c(F)cccc1F)C(=O)CSc1ccccc1,-1.5,-6,3,2,-3.4,6,-6,-0.4,1,-5
COc1ccccc1C1(O)C(=O)Nc2ccccc21 (centres undefined),-1.9,/,2,-2,-5.7,-12,-7,-0.1,6,-3
COCC1CCCCN1C(=O)c1ccc2nc(Cc3ccc(OC)c(OC)c3)oc2c1 (centres undefined),1.6,5,7,5,1.7,3,1,0.4,38,-3
O=C(COC(=O)c1ccc2c(c1)OCCO2)Nc1cc(S(=O)(=O)N2CCOCC2)ccc1Cl,-0.1,/,11,17,-4.1,-4,-4,0.2,0,-5
CCOC(=O)c1cc(OC(=O)c2ccccc2Br)n(-c2ccccc2)n1,17*,-1,-6,4,-1.5,-13,61,0.5,4,-33
O=C(N1CCCCC1)N1CCN(C(c2ccccc2)c2ccccc2)CC1,3.9,4,/,/,/,13,-7,-0.2,1,-8
CCOC(=O)c1cc2sccc2n1CC(=O)N1CCCC1,10,-3,8,14,-3.2,-17,-2,-0.7,2,106*
C=Cn1cc[n+](CC(=O)C(C)(C)C)c1,0.2,2,/,/,/,-17,-1,-0.2,-4,-7
N#Cc1nc(COc2ccc(F)cc2)oc1NCCCn1ccnc1,2.6,3,/,/,/,7,5,1.9,-8,6
O=C(COc1ccccc1)NCC(=O)N/N=C/C=C/c1ccccc1,3.2,/,15,8,1.0,15,-3,0.8,-3,-1
c1ccc(-c2c[n+]3c(n2-c2ccccc2)CCC3)cc1,3.4,25,2,14,3.4,-10,-1,0.4,-2,1
CCOC(=O)c1cnc(SC)nc1N,-4.7,-8,/,/,/,4,/,-0.5,-9,-6
NC(=O)CC(NC(=O)c1cccc(Br)c1)c1ccc(N2CCC(Br)CC2)c([N+](=O)[O-])c1 (centres undefined),4.9,-8,-5,8,5.8,-28,-5,?,-15,-2
C=CCn1nc([N+](=O)[O-])nc1Sc1cccc2cccnc12,-4.8,95*,/,/,/,50,-36,1.1,11,-28
COc1cc(S(=O)(=O)NCCCn2ccnc2)ccc1Cl,-1.7,-8,-2,-8,4.5,7,-4,-1.2,-3,17
CCc1ccc(NC(=O)C2=CC(c3cccs3)=NS(=O)(=O)N2C)cc1,2.0,-8,-3,-18,-5.1,16,-3,0.6,-10,-3
CCC(Sc1n[nH]c(=O)[nH]c1=O)C(=O)OCc1ccccc1 (centres undefined),-3.9,-5,/,/,/,-7,7,-0.7,5,13
CCc1nnc(NS(=O)(=O)c2ccc(NC(=S)NC(=O)/C=C/c3ccc(OC)cc3)cc2)s1,-6.9,-13,/,/,/,16,16,-0.3,3,9
COc1cc(-c2cc(C(=O)N3CCN(c4ccccn4)CC3)c3ccccc3n2)cc(OC)c1OC,-2.7,6,/,/,/,19,-1,1.1,9,-17
O=C(CCc1nnc(C2CCCCC2)o1)N1CCCCC1CCn1cccn1 (centres undefined),-5.2,-4,12,0,0.1,-2,-1,-0.8,-8,-7
CCOC(=O)N1CCN(c2ccccc2OC)CC1,3.8,-2,12,11,1.4,5,-4,0.4,0,-1
CC(c1n[nH]c(=S)n1Cc1ccccc1)N(C)C (centres undefined),0.2,2,5,7,1.2,-12,-3,0.0,2,-7
CCOC(=O)Cc1nn(CCc2ccccn2)c(=O)c2ccccc12,2.2,-6,/,/,/,-6,-13,0.7,2,9
O=C(NC1CCCc2ccccc21)c1cccc(S(=O)(=O)N2CCOCC2)c1 (centres undefined),2.3,-4,3,-13,-1.0,-3,-9,0.4,6,1
Cc1ccc(O)c(C2=Nc3ccccc3N=C(c3cccs3)C2)c1,-1.8,-5,/,/,/,0,-4,0.7,-8,-5
O=C(c1c(O)c2ccccc2oc1=O)C1CCCCC1,-1.6,3,/,/,/,-20,64,-0.7,-4,?
COCCNC(=O)C(c1ccc(C)cc1)N(C(=O)CCC(=O)Nc1ccccn1)C1CCCCC1 (centres undefined),-3.7,-3,0,-2,-0.5,-4,3,0.0,-3,-3
CCC(c1nnc(SCC(=O)NC2CCCCC2)n1Cc1ccccc1)N(C)C (centres undefined),3.9,2,8,12,-3.8,-7,-3,0.0,6,4
COc1ccc(S(=O)(=O)N2CCCCCC2)cc1C(=O)NCc1ccc(C)cc1,3.9,-2,1,2,-1.0,/,-8,-0.4,4,/
CCOC(=O)c1c(C)[nH]c(C(=O)OC(C)C(=O)Nc2ccccc2OC)c1C (centres undefined),-0.3,/,-1,0,0.4,22,-4,0.7,-3,-3
O=C1CC(c2ccccc2)n2nc(N3C(=O)c4ccccc4C3=O)nc2N1 (centres undefined),0.6,-4,/,/,/,-18,-9,0.0,-1,7
Cc1cccc(NC(=O)CN2C(=O)NC(C)(c3ccc4ccccc4c3)C2=O)n1 (centres undefined),0.8,0,-8,-16,5.6,2,-1,-0.2,-6,-8
COCCCN1C(=O)C(=O)/C(=C(/O)c2ccc(OC(C)C)cc2)C1c1ccc(O)c(OC)c1 (centres undefined),-2.4,-6,/,/,/,12,-10,0.2,/,6
CN(C)c1ccc(/C=C/C=C2/SC(=S)N(c3ccccc3)C2=O)cc1,-0.7,20,/,/,/,0,-16,0.0,-89,-49
CCC1(c2ccccc2)NC(=O)N(CC(=O)NCc2ccncc2)C1=O (centres undefined),-0.6,-3,7,15,2.8,-21,-31,0.2,3,3
# Further structures:
SMILES,LANA-H2B inh,Beta apoptosis,Ecoli rRNA inh,Ecoli rRNA inh OD600,Ecoli rRNA inh RFP,T cruzi repl,ALR H2O2 inh,A1 inh,B2AR ag,Calb FLC
COc1ccc(/C=C2\N=C(c3ccccc3)N(c3ccc(C(=O)O)cc3)C2=O)cc1OC,-2.9,6,5,3,-0.5,12,-13,1.1,15,2
CN(CC(=O)NC1CCCCCC1)S(=O)(=O)c1ccccc1,4.8,-6,-12,-6,-3.7,-10,-1,0.4,3,6
C#CCOCCOCCOCCNc1nc(N2CCOCC2)nc(N2CCN(C(=O)[C@H](CO)n3cc([C@@H](N)C(C)C)nn3)CC2)n1,-5.2,-2,5,15,6.2,/,-1,0.8,-1,/
O=C(Nc1ccc(Oc2ccccc2)cc1)C1CC1,-5.3,-3,-26,-30,-6.0,3,-3,-0.5,-7,-45
COc1ccc(-n2c(N)c(C(=O)NCc3ccco3)c3nc4ccccc4nc32)c(OC)c1,-2.4,-10,-14,-10,3.4,24,-15,0.3,8,?
O=C(Nc1ccc(N2CCOCC2)c(Cl)c1)c1ccc(Br)o1,9.0,1,/,/,/,-6,-12,-3.2,10,-1
C=C(C)COc1ccc(-c2nc(N)nc(C)c2-c2ccc(OC)cc2)c(O)c1,-2.6,-2,/,/,/,48,-2,0.3,0,-2

# Not all compounds are listed; count on the stated rates, not on these rows.
